AID504770 – growth inhibitors of E. coli YBA685 in a screen for V. cholerae RctB (chromosome II replication) inhibitors | AID 504770 | 130,000 tested, 0.27% active | z-score (concentration not given with the values) | E. coli YBA685 rctB-dependent plasmid, OD600 growth, 3 h; active compounds read low;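 active means z-score under -2 on both plates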;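 further: wells of about 30 µL received 100 nL stock; score is relative to mean and SD of the test wells; the first replicate is given; strong numbers were not always called active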
Ba CapD inh – CapD enzyme inhibition; purified CapD enzyme, fluorescence intensity read-out; active compounds read low; some hits fall short of the stated cut; z-score (test concentration not listed); 140,000 tested, 0.23% active;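 active means z-score under -4 in either of two replicates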;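 further: stock transfer was 100 nL into about 40 µL; score is relative to mean and spread of the plate; one replicate is shown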
* = called active by the depositor; x = no result given; & = joins results of further samples.

SMILES	AID504770	Ba CapD inh
CC1Cc2ccccc2N1C(=O)CC(C#N)(C#N)CC(=O)N1c2ccccc2CC1C (stereo not drawn)	-0.2	x
CCC(C)C1C(C#N)=C(N)Oc2n[nH]c(C)c21 (stereo not drawn)	2.1	-0.52
CCC1(CC)Cc2ccccc2C(CC(=O)N2CCOCC2)=N1	0.75	-1.88
Nc1c(C(=O)OC2CCCCC2)c2nc3ccccc3nc2n1Cc1ccco1	1.15	x
N#CC1=C(N)Oc2c(Br)cc(Br)cc2C1C(C#N)C#N (stereo not drawn)	x	0.085
CC(NC(=O)CCn1c(=O)oc2ccccc21)c1ccccc1 (stereo not drawn)	0	-0.875
c1ccc(OCc2ccc(CCCN3CCOCC3)cc2)cc1	-1.1	-0.61
O=C(NCCSc1c(-c2ccc(Br)cc2)[nH]c2ccccc12)c1ccncc1	-0.5	0.255
CCCCS(=O)(=O)N1CCN(c2cc(Cl)ccc2C)CC1	0.75	1.01
CC1NC(=S)N(C2CCCCC2)C1=O (stereo not drawn)	-0.65	0.54
CC1(C)CC(=O)C2=C(C1)N(c1cccc(C(F)(F)F)c1)C(N)=C(C#N)C2c1cccs1 (stereo not drawn)	x	0.44
CCOC(=O)c1c(C)c(C(=O)N(C)C2CCCCC2)c(C)n1C	0.2	0.47
CCn1c(=N)n(CCOc2ccc(OC)cc2)c2ccccc21	0	0.53
O=C(NCCN1CCOCC1)c1ccc2c(c1)ncn2-c1ccc(OCc2ccccc2)cc1	x	-1.75
COc1ccc(NC(=O)CN2C(=O)c3ccccc3Sc3ccc(C(=O)N4CCCC4)cc32)c(OC)c1	-0.8	-0.375
CCN1C(=O)c2cccc3c(S(=O)(=O)NCC4CCCO4)ccc1c23 (stereo not drawn)	1	1.58
COC(=O)c1c(N)n(-c2ccc(F)c(F)c2)c2nc3ccccc3nc12	-0.35	x
O=C(NC1CCS(=O)(=O)C1)C(c1ccccc1)c1ccccc1 (stereo not drawn)	-0.5	0.11
Cc1cc2c(=O)[nH]nc(N)c2c(=O)[nH]1	-0.8	1.54
COC(=O)[C@H]1[C@H]2C[C@@H]3c4[nH]c5cc(OC)ccc5c4CCN3C[C@H]2C[C@@H](OC(=O)c2cc(OC)c(OC)c(OC)c2)[C@@H]1OC	0.55	1.01&-0.235

Reformatted with values under each structure: entries from further up.
Second line of a record: AID504770	Ba CapD inh
CC1Cc2ccccc2N1C(=O)CC(C#N)(C#N)CC(=O)N1c2ccccc2CC1C (stereo not drawn)
  -0.2	x
CCC(C)C1C(C#N)=C(N)Oc2n[nH]c(C)c21 (stereo not drawn)
  2.1	-0.52
CCC1(CC)Cc2ccccc2C(CC(=O)N2CCOCC2)=N1
  0.75	-1.88
Nc1c(C(=O)OC2CCCCC2)c2nc3ccccc3nc2n1Cc1ccco1
  1.15	x
N#CC1=C(N)Oc2c(Br)cc(Br)cc2C1C(C#N)C#N (stereo not drawn)
  x	0.085
CC(NC(=O)CCn1c(=O)oc2ccccc21)c1ccccc1 (stereo not drawn)
  0	-0.875
c1ccc(OCc2ccc(CCCN3CCOCC3)cc2)cc1
  -1.1	-0.61
O=C(NCCSc1c(-c2ccc(Br)cc2)[nH]c2ccccc12)c1ccncc1
  -0.5	0.255
CCCCS(=O)(=O)N1CCN(c2cc(Cl)ccc2C)CC1
  0.75	1.01
CC1NC(=S)N(C2CCCCC2)C1=O (stereo not drawn)
  -0.65	0.54
CC1(C)CC(=O)C2=C(C1)N(c1cccc(C(F)(F)F)c1)C(N)=C(C#N)C2c1cccs1 (stereo not drawn)
  x	0.44
CCOC(=O)c1c(C)c(C(=O)N(C)C2CCCCC2)c(C)n1C
  0.2	0.47
CCn1c(=N)n(CCOc2ccc(OC)cc2)c2ccccc21
  0	0.53
O=C(NCCN1CCOCC1)c1ccc2c(c1)ncn2-c1ccc(OCc2ccccc2)cc1
  x	-1.75
COc1ccc(NC(=O)CN2C(=O)c3ccccc3Sc3ccc(C(=O)N4CCCC4)cc32)c(OC)c1
  -0.8	-0.375
CCN1C(=O)c2cccc3c(S(=O)(=O)NCC4CCCO4)ccc1c23 (stereo not drawn)
  1	1.58

Following part:
SMILES	AID504770	Ba CapD inh
CC(C)CCN(Cc1ccco1)S(=O)(=O)c1ccc(-c2ccc(=O)[nH]n2)s1	1.1	1.25
CCn1c(C(=O)N2CCC(C(=O)N3CCN(c4ccccc4)CC3)CC2)cc2sccc21	-0.65	0.13
CNC(=O)C1CCN(c2nc3c(C)cc(C)cc3s2)CC1	-0.45	-0.64
O=C(c1cccs1)N1CCC(n2nc(-c3ccccc3)oc2=O)CC1	-0.55	-0.155
O=C(NC(=O)c1ccccc1O)c1ccc2c(c1)CCO2	-0.15	1.11
COc1ccc(/C=C/C(=O)Nc2ccc(N3CCOCC3)cc2)cc1OC	1.85	-0.145
N#C/C(=C\c1ccc(-c2ccc(S(N)(=O)=O)cc2)o1)S(=O)(=O)c1ccccc1	0.15	0.325
Cc1c(O)ccc(C(=O)CN2CCN(Cc3ccccc3)CC2)c1O	-0.4	x
CCCc1nn(C)c2c(=O)[nH]c(-c3cc(S(=O)(=O)N4CCN(C)CC4)ccc3OCC)nc12	-1.3&0.45	x
CCn1c(=N)n(CC(=O)c2cccs2)c2ccccc21	-0.5	0.635
CN(C)/C=N/c1nnc(Sc2ccc(C(F)(F)F)cc2[N+](=O)[O-])s1	x	-0.905
COc1ccc(NC(=O)CCc2ccc(C)o2)cc1	0.35	x
COc1ccccc1/C=N/n1c(SCC(=O)O)nnc1C1CCCCC1	-0.7	x
CC(C)CCNS(=O)(=O)c1ccc2[nH]c(=O)oc2c1	-0.65	-0.42
CCN(CC)S(=O)(=O)c1ccc(/C=C/C(=O)Nc2cccc(C)c2)cc1	0.45	-1.27
CCCCCCCCCOc1ccc(-c2ncc(CCCCCC)cn2)cc1	x	-0.29
CC(=O)OCC12COC(C)C(C(C)=CC1C)C2C (stereo not drawn)	0.3	x
CC(C)(C)c1ccc(C2CC(=O)c3cnc(N)nc3C2)cc1 (stereo not drawn)	1.65	0.95
NNC(=O)c1nc2ccccc2c(=O)[nH]1	x	0.365
CCN(C(=O)CCc1nc(-c2ccccc2F)no1)c1cc(OC)ccc1OC	-0.65	0.665
CCN1CCc2c(OCC(=O)Nc3ccccc3)cccc2C1=O	-0.1	0.09
Cn1cc(/C=C2\SC(=O)NC2=S)c2ccccc21	0.95	x
O=c1c2ccccc2[nH]c(=S)n1-c1ncn[nH]1	-0.9	x
CC(CC(=O)N(C)Cc1ccccc1)S(=O)(=O)c1ccc2c(c1)SCC(=O)N2 (stereo not drawn)	-1.3	0.385
CN1CCN(C2=NC(=O)/C(=C/c3ccc(Cl)cc3)S2)CC1	x	-0.11
Cc1ccc(NC(=O)c2cnc(SCC(=O)NCc3ccc4c(c3)OCO4)n(C)c2=O)cc1	0.7	x
CCN1CCSc2ccc(C(=O)NC3CC3)cc21	0.1	103
Cc1csc(NC(=O)CCCC(=O)O)c1-c1nc2ccccc2s1	-0.1	-1.47
CCOCCOC(=O)C1=C(C)NC2=C(C(=O)CC(c3ccc(Cl)cc3)C2)C1c1cc2c(cc1Br)OCO2 (stereo not drawn)	x	3.89
O=C(c1c[nH]c(C(=O)C(Cl)(Cl)Cl)c1)c1sccc1Cl	x	-0.97
Cc1cccc(CCOC(=O)NNC(=O)c2ccco2)c1	x	0.465
COc1ccc(OC)c(C2NC(=O)N(C)C(C)=C2C(=O)OCCOc2ccccc2)c1 (stereo not drawn)	x	-0.075
CC1CCCC(C)N1C(=O)CSCc1cccc(S(=O)(=O)N2CCOCC2)c1 (stereo not drawn)	-0.15	x
FC(F)(F)c1nc2ccccc2n1-c1cc(-c2ccccc2)[nH]n1	-0.85	-0.895
Clc1nc(N2CCCc3ccccc32)nc(N2CCCc3ccccc32)n1	-0.1	0.015
CC1CC(C)CN(CCCNC(=O)Cc2c(C(=O)O)n(C)c3ccccc23)C1 (stereo not drawn)	x	37.2
O=C(O)COC12CC3CC(CC(C3)C1)C2	-0.7	x
CC(C)(C)OC(=O)N1CCCC1C(=O)Oc1ccc2c(c1)oc(=O)c1ccccc12 (stereo not drawn)	-0.25	x
c1ccc2[nH]c(-c3cscn3)nc2c1	0.3	-0.165&0.15
O=C(O)c1cccc(N2C(=O)/C(=C/c3ccccc3)SC2=S)c1	-1.05	-1.68
CCCN1CCC(N2CCN(CCO)CC2)CC1	1.45	-0.03
OCCNC(=S)c1ccccc1	-0.85	0.015
COc1cc(/C=C2/C(=N)N3C(c4ccccc4)=CSC3=NC2=O)ccc1OCc1ccc(F)cc1	x	-0.42
Nc1nc(CSc2nc3ccccc3o2)cs1	-0.2	x
C=CCn1c2ccccc2c2nnc(SCC(=O)Nc3c(C)n(C)n(-c4ccccc4)c3=O)nc21	2.4	0.25
COC(=O)c1ccc(=O)oc1	0.1	-0.43
COc1ccc(-c2[nH]ncc2C=C(C#N)C#N)cc1	2.5	-0.64
CCOc1cc(-c2nc3sc4c(c3c(=O)[nH]2)CCCC4)ccc1OCc1ccccc1Cl	x	0.125
COc1cnc(-c2cccnc2)nc1-c1cccc(C(F)(F)F)c1	x	0.29
O=C1OC(c2ccccc2)=N/C1=C\c1ccsc1	0	1.04
(listing goes on)
SMILES	AID504770	Ba CapD inh
O=[N+]([O-])c1cccc(-c2noc(CCCOc3ccc(Cl)cc3Cl)n2)c1	x	-0.165
CCNCc1ccc2c(c1)OCO2	-0.55	x
O=C(CC(NCCc1ccccc1)C(=O)O)Nc1ccc(Cl)cc1 (stereo not drawn)	0.9	-0.18
O=C(O)CNC(=S)N(Cc1ccccc1)Cc1cccnc1	-0.6	0.98
COc1cc(C2SCCS2)cc(Br)c1O	x	0.71
CSC(=C(C#N)C#N)N1CCCC1	-0.7	x
CC1=CC(=C(C#N)C#N)C=C(c2ccccc2)N1Cc1ccco1	-0.55	x
O=C(NC1CCNCC1)C1CCCC1	-0.7	x
c1cnn(-c2ccc(-c3cnco3)cc2)c1	-1.2	-0.3
COc1ccc(NC(=O)CC2C(=O)NCCN2C(=O)c2ccc(C(C)(C)C)cc2)cc1 (stereo not drawn)	0.1	-0.13
O=C(COC(=O)C1Cc2ccccc2CN1C(=O)c1ccco1)Nc1ccc(F)cc1 (stereo not drawn)	0.35	x
COc1ccccc1-c1nnn(CC#N)n1	-0.25	x
C/C(=N\OCC(=O)NC12CC3CC(CC(C3)C1)C2)c1cc2ccccc2o1	0.15	x
O=C(O)C1C2C=CC(CC2)C1C(=O)O (stereo not drawn)	-0.6	-1.52
C=CCNC(=O)CCN1N=C(c2ccc(C)cc2)CCC1=O	-2.4	0.445
CCN(CC)C(=O)c1sc(NC(C)=O)c(C(=O)OC)c1C	1.7	x
N#Cc1cnc(SCc2ccccc2)nc1N	-1.35	x
COc1cccc(C2NC(CC(C)C)(C(=O)O)C3C(=O)N(c4ccc(F)cc4)C(=O)C23)c1 (stereo not drawn)	0.15	0.06
C=CCNC(=S)C(=O)Nc1ccccc1	1.55	-1.37
CCOC(=O)CSc1sc(C(=O)OCC)c(C)c1C#N	x	-0.755
O=C(NC1CCCCC1)NC12CC3CC(CC(C3)C1)C2	-0.3	0.04
CNC(=O)CCCc1nnc2n(C)c(=O)c3sccc3n12	-1.3	0.155
CCOC(=O)c1sc(NC(=O)C(C)Sc2nnc(CNC(=O)c3ccco3)n2-c2ccc(F)cc2)c(C(=O)OCC)c1C (stereo not drawn)	x	0.205
N#Cc1ccc(OCC(O)CNCCC2=CCCCC2)cc1 (stereo not drawn)	-0.25	x
COc1ccc(N=Cc2nc(-c3ccccc3Br)oc2O)c([N+](=O)[O-])c1	x	-0.145
CON/C=N/c1nc2nccc(C(C)Oc3ccc([N+](=O)[O-])cc3)n2n1 (stereo not drawn)	x	-0.485
CC(C)(Oc1ccc(C2CC2(Cl)Cl)cc1)C(=O)O (stereo not drawn)	x	-0.31
Nc1nc2ccccc2n1CCN1CCCC1	-0.2	0.03
O=C(COC(=O)c1ccco1)Nc1ccccc1	0.3	0.475
Cc1ccc(-n2c3nc4ccccc4nc3c3c(=N)oc(C)nc32)cc1	-0.3	x
CN(C(=O)/C=C/c1ccco1)c1ccccc1C(=O)O	-1.2	x
O=C(CSc1ncnc2sc3c(c12)CCCC3)c1cccs1	1.35	x
CCN(C(=O)Cn1c(=O)n2nc(CCn3nc(C)cc3C)nc2c2ccccc21)c1cccc(C)c1	-1.15	0.07
Cc1ccc2[nH]cc(NC(=O)NCCc3ccccc3)c(=O)c2c1	-0.8	22.6
Cc1onc(-c2ccccc2Cl)c1C(=O)N(CCC#N)Cc1ccccc1	x	-0.175
Nc1c(NCCN2CCCC2)c2ccccc2oc1=O	-0.65	0.955
CN1C(=O)C(CC(=O)Nc2ccc3c(c2)Cc2ccccc2-3)N(C)C1=O (stereo not drawn)	-1.15	0.27
COC(CNC(=O)c1csc2c1CCCC2)OC	-0.85	27.9
CN(C)C(CC(=O)Nc1ccc(Cl)c(Cl)c1)C(=O)O (stereo not drawn)	-0.35	x
Cc1ccc(-c2c(C#N)c(SCC(=O)c3ccc(O)c(O)c3)nc3c2CCCC3)o1	x	0.55
Cc1cccc[n+]1[C@@H]1[C@@H](c2ccc(Cl)cc2)C(C#N)=C([S-])N[C@]1(C)O	x	0.36
Cn1c(-c2ccccc2)cnc1NCc1ccccc1	1.25	12.4
O=C(c1cccs1)c1cn(Cc2ccccc2Cl)c2ccccc12	1.95	-0.465
Clc1ccccc1-c1nnc2sc(Nc3ccccc3)nn12	2.5	-0.67
CCOC(=O)c1cnc(Nc2nc3ccccc3o2)nc1-c1ccccc1	-0.65	-0.16
CC(C)=CCC/C(C)=N\n1cnnc1	-0.45	0.095
COc1c(F)c(F)c(/C=C/CN2CCOCC2)c(F)c1F	0.05	0.09
CCOC(=O)c1oc2ccccc2c1N=Cc1c(O)n(CCOC)c(=S)[nH]c1=O	-0.15	x
CC(C)N(C(=S)Nc1cccnc1)c1ccccc1	0.9	x
Cc1nn(C)c(C)c1CS(=O)(=O)c1ccccc1	1.1	0.58
COc1ccc(NC(=O)CN2CCC(c3nc4ccc(Cl)cc4[nH]3)CC2)c(OC)c1	-0.45	x
CN1CCN(c2nc3c(c(=O)n(C)c(=O)n3C)n2CC(=O)c2ccc(Br)cc2)CC1	x	0.33
Cc1cc(C(=O)CC2=C(O)CC(C)(C)CC2=O)c(C)n1Cc1cccs1	-0.95	x
